# From PubChem BioAssay
# TRPV1 PAM: HTS Assay for Compounds that Act as Potentiators of the Vanilloid Receptor 1; Transient receptor potential cation channel subfamily V member 1 (Homo sapiens), Q8NER1; TRPV1-expressing cells, Fluo-8 calcium influx, capsaicin EC20 potentiation; host cell line not named in the record; control for the full effect not named in the record; potentiation, % at 8.33 µM; 320,000 tested, 0.02% active; AID 540277, 2011; active means potentiation above 80%; inconclusive means 30% to 80%; inactive means below 30%; further: 0% is about no effect
# Target sequence (Q8NER1 whole entry, looked up): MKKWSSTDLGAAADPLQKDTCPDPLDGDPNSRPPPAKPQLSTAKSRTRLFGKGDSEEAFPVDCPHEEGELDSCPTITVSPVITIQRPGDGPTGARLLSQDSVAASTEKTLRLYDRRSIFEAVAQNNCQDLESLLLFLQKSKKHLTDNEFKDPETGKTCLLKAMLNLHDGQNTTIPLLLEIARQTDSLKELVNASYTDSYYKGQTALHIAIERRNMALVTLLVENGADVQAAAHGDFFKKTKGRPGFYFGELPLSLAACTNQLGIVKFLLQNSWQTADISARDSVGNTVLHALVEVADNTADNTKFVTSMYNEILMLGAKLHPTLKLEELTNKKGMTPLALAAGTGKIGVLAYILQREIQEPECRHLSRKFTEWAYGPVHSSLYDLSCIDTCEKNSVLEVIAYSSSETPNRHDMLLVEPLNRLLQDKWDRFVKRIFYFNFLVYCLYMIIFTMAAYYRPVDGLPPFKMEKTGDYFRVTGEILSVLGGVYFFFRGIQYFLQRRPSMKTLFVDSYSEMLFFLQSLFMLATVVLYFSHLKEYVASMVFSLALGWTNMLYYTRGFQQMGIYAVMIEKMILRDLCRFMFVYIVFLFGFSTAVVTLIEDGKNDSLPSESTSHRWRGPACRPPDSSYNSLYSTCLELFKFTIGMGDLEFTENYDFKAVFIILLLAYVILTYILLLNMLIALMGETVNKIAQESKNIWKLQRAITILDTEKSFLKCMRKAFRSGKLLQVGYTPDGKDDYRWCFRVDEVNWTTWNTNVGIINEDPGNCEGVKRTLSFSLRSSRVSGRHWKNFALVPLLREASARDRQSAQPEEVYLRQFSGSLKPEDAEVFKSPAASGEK
#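 TRPV1-expressing cells were cultured overnight at 35.5C and loaded with Fluo-8 calcium dye for 40 to 90 min at room temperature. After a 10 s baseline, compound was added and calcium influx was read kinetically for 3 min (ex 480/em 520 nm).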
# Menin MLL FP FL: qHTS Assay for Inhibitors Targeting the Menin-MLL Interaction in MLL Related Leukemias: Competition With Fluorescein Labeled MLL-derived Peptide | FP activity change, % at 61.4 µM | Fluorescence polarization, fluorescein-MLL peptide displacement from menin | 290,000 tested, under 10 active; inconclusive = falling polarisation curve, or a change in total fluorescence; inactive = total fluorescence flat and polarisation flat or rising; no compound was filed as active; the % refers to the polarisation; negative = inhibition;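 further: % of control where 0% means no effect; inhibitors lower the polarisation; unlabelled MLL peptide was the positive control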
# TRPML1 blocker: qHTS for Inhibitors of the Human Mucolipin Transient Receptor Potential 1 (TRPML1); activity change, negative = inhibition, % (test concentration not listed); Mucolipin-1 (Homo sapiens), Q9GZU1; TRPML1-inducible cells, Ca2+ dye fluorescence, FDSS; stronger effect = lower value; inhibition of EC80 agonist-evoked calcium signal; 390,000 tested, 0.02% active; in the data active means activity change below about -50%; inconclusive means about -30% to -50%; inactive means above about -30%;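 further: stimulus is agonist 54-4 at its EC80 concentration; on the % scale 0 is the no-effect control and ±100 the full control effect; compound concentration not given in the record; the text of the record puts the active cut at -80%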
#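 Calcium fluorescence in TRPML1-DL cells induced overnight with Tet: a 110 s read after compound pin addition, then a 110 s antagonist read after challenge with 54-4 at 4 uM final (EC80).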
# ClpP mod: qHTS Assay for Activators of ClpP. AID 651965, 2013. Potency, µM (highest dose often 57.5 µM), for the others: top-dose activity change, negative = active. 340,000 tested, 1.9% active. ATP-dependent Clp protease proteolytic subunit (Bacillus subtilis (strain 168)), P80244. purified B. subtilis ClpP, FRET peptide cleavage, 20 min; active = well fitted falling curve with a large enough effect; inconclusive = small, poorly fitted or top-dose-only effect; inactive = no such curve, though single readings can be large or run the other way; further: potency means the concentration at half of the fitted maximal effect; the source files actives as falling curves though it sought activators and does not explain the sign; nearly all actives have a fitted effect of over 65% in size; many hits overshoot -100%
# Target sequence (P80244 whole entry, looked up): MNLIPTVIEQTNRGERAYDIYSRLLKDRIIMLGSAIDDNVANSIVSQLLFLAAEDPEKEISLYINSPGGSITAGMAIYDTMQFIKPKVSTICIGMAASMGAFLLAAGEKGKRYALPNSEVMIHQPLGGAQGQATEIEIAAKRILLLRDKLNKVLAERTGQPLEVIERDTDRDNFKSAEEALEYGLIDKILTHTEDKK
#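 ClpP 10 microg/mL final, pH 8 Tris/KCl buffer with BSA, glycerol, Tween-20; compound pinned in; FRET-FV substrate; RT 20 min; Ex320/Em430; ΔFRET vs ADEP 5.8 microM, DMSO, no enzyme.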
# gsp ag: qHTS for Agonist of gsp, the Etiologic Mutation Responsible for Fibrous Dysplasia/McCune-Albright Syndrome: qHTS | 340,000 tested, 0.13% active | Potency, µM (highest dose often 76.9 µM), for inactives: at the top dose activation (cAMP increase), most hits filed as activators | gsp mutant cells, cAMP HTRF, 30 min; control for the full effect not named in the record; active = well fitted activation curve with a large enough effect; inconclusive = small, poorly fitted or top-dose-only effect, or another doubt; inactive = no such curve, though single readings can be large or run the other way; cell line not stated here;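 further: phosphodiesterase inhibitor Ro 20-1724 added with compounds to block cAMP breakdown; potency means the concentration at half of the fitted maximal effect; nearly all actives have a fitted effect of over 60% in size; about a fifth of the inactives were tested at one dose only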
#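 Cells stably selected in G418 were plated at 2000/well, grown 16-24 hr, then given compounds in DMSO with the PDE inhibitor […] (300 uM solution added) for 30 min at 37C; cAMP was read by HTRF.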
# gsp antag: qHTS for Antagonists of gsp, the Etiologic Mutation Responsible for Fibrous Dysplasia/McCune-Albright Syndrome: qHTS; gsp-mutant cells, cAMP HTRF, 30 min; control for the full effect not named in the record; Potency, µM (titrated, usually from 76.9 µM), without a hit: at the top dose activity change, negative = inhibition, most hits filed as inhibitors; 340,000 tested, 0.4% active; active = falling curve of any shape with a large fitted effect; inconclusive = falling curve, mostly with a smaller effect; inactive = flat or rising curve; cell line not stated here;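 further: intracellular cAMP measured with PDE inhibitor Ro 20-1724 present during compound exposure; potency means the concentration at half of the fitted maximal effect; on the % scale 0 is the no-effect control and ±100 the full control effect; nearly all actives have a fitted effect of over 65% in size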
#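 HTRF cAMP measurement after 30 min RT detection following 30 min, 37C compound treatment alongside […] (added as 300 uM solution) in G418-selected cells seeded at 2000/well and grown 16–24 h.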
# Sfp inh: qHTS Assay for Inhibitors of Bacillus subtilis Sfp phosphopantetheinyl transferase (PPTase) | 310,000 tested, 3.5% active | Potency, µM, inactives show max response, negative = inhibition, usual class: inhibitors | 4'-phosphopantetheinyl transferase ffp (Bacillus subtilis), Q9F4F7 | Biochemical Sfp PPTase activity, qHTS; active means well fitted inhibition curve with a large enough effect; inconclusive means small, poorly fitted or top-dose-only effect, or another doubt; inactive means no such curve, though single readings can be large or run the other way;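 further: the enzyme is Sfp with the accession as filed and its product quenches rhodamine fluorescence; potency means the concentration at half of the fitted maximal effect; 0% = enzyme reaction without inhibitor and -100% = no enzyme wells; top concentration of the series not given in the record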
#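 Step 1, compound plus 15 nM Sfp-PPTase, 15 min, room temperature. Step 2, add rhodamine-CoA (5 uM) and BHQ-2-YbbR (12.5 uM). Step 3, read 525/598 nm fluorescence at 0 and 30 min.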
# Active calls of the source: *; ? = inconclusive; / = not tested or not shown; [ ] = another dose, or the depositor's remark. No enrichment for hits (roughly 4.9% active in at least one column).
SMILES,TRPV1 PAM,Menin MLL FP FL,TRPML1 blocker,ClpP mod,gsp ag,gsp antag,Sfp inh
COc1cc2c(cc1OC)C(C(=O)NCCN1CCOCC1)C1c3ccccc3CCN1C2=O (stereo not given),-6,-1.9,8,-2.5%,-17%,0%,1%
O=c1cc(CN2CCCCCC2)nc2sccn12,-3,-8.3,16,/,-11%[15.4 µM],5%,?
CS(=O)(=O)NNC(=O)c1csc(Cc2c(Cl)sc3ccc(Cl)cc23)n1,1,0.0,-18,/,13%[15.4 µM],3%,15%
CCn1c(SCC(=O)Nc2ccc(F)cc2)nnc1-c1cnccn1,22,/,1,1.4%,?,-5%,1%
Cc1ccc(CN2C(=O)CSC2c2ccccc2F)cc1 (stereo not given),-12,-9.5,/,-0.6%,-26%,4%,-9%
COc1ccc(/C=C/C(=O)OCC(=O)N2CCCC2)c(OC)c1,1,/,18,-13%,-30%[inhibitor],6%,/
CCOc1ncccc1C(=O)Nc1ccc(-c2ccc3nnc(C)n3n2)cc1,-26,-0.8,5,?,-1%,-2%,-4%
CC(=O)Nc1ccc(/C=N/NC(=O)c2cc(-c3ccco3)nc3ccccc23)cc1,/,3.3,24,/,2%[15.4 µM],-3%,8%
COc1ccc(S(=O)(=O)N(C)CC(=O)NC2CCCCC2)cc1Cl,-16,-0.7,5,-2.5%,-4%,-3%,7%
COc1cc2c(cc1OC)CN(C(=O)/C=C/c1cccs1)CC2,-7,0.3,7,-5.4%,-2%,10%,7%
Cc1[nH]nc2c1C(c1cccs1)C1=C(CC(C)(C)CC1=O)N2 (stereo not given),?,4.3,2,/,-12%[15.4 µM],8%,18%
COc1cc(-c2nc3ccc(N4CCN(C)CC4)cc3[nH]2)cc(OC)c1OC,2,3.6,23,/,-7%[15.4 µM],-14%,-9%
COc1ccc(/C=C(/NC(=O)c2ccc(Br)cc2)C(=O)Nc2cccc(C(=O)O)c2)cc1,/,/,-7,-2.4%,-57%[inhibitor],/,/
CCOC(=O)c1oc2ccccc2c1NC(=O)c1ccc(Cl)s1,0,2.0,1,20%,-9%,-8%,?
CC1CN(CCOCCSc2ccccc2)CC(C)O1 (stereo not given),?,3.1,-11,-0.1%,-60%[inhibitor],3%,3%
CCOC(=O)C1=C(O)C(Nc2nc3ccccc3s2)(C(F)(F)F)N=C1C (stereo not given),26,-0.1,-13,-1.8%,-92%[inhibitor],0%,8%
Cc1ccc(NC(=O)C(C)c2cccc(C(=O)c3ccccc3)c2)cc1O (stereo not given),-3,5.5,18,20µM*,-45%[inhibitor],-15%,14%
Cc1ccc(C)c(S(=O)(=O)NCC(c2ccc3c(c2)OCO3)N2CCOCC2)c1 (stereo not given),-2,/,24,-1.8%,-7%,-19%,/
N#Cc1ccc(CN2CCN(C(=O)CNC(=O)Cc3cccc4ccccc34)CC2)cc1,?,/,40,/,11%[15.4 µM],-5%,/
COc1ccc(C(=O)Nc2ccc(Cl)cc2C(=O)NCCN2CCOCC2)cc1,-8,1.7,0,-4.0%,7%,-4%,12%
COc1ccc(S(=O)(=O)N(C)C)cc1NC(C)C(=O)Nc1cccc(C#N)c1 (stereo not given),-1,-6.2,3,/,2%[15.4 µM],-5%,-3%
Cc1csc(SCC(=O)Nc2ccc(F)cc2Cl)n1,/,/,9,-1.0%,-3%[15.4 µM],1%,/
COc1ccc(-n2c(C)nc3cc(C(=O)NCCN4CCOCC4)ccc32)cc1,-1,0.7,-11,-4.4%,-27%,6%,11%
Cc1ccc(C(=O)NCC(=O)OCC(=O)c2ccc(Cl)s2)cc1,-11,/,-2,0.2%,20%,11%,/
COc1ccccc1N1CCN(C(=S)NC(=O)/C=C/c2ccc(F)cc2)CC1,-15,2.0,-1,-3.3%,-19%,-2%,5%
Cc1cc(C)cc(NC(=O)C(OC(=O)c2ccc([N+](=O)[O-])o2)c2ccccc2)c1 (stereo not given),6,3.4,5,0.3%,-2%,-3%,18%
O=C(Nc1ccc(S(=O)(=O)N2CCOCC2)cc1)c1ccccc1,-19,-2.6,37,-0.7%,-8%[15.4 µM],-12%,7%
COc1cc(OC)c(NC(=O)[C@@H]2CCC(=O)N2C2OC(=O)c3c2ccc(OC)c3OC)cc1Cl (stereo not given in full),3,-2.2,/,-2.3%,/,8%,12%
COCCNC(=S)N(CCCO)Cc1cc2cc3c(cc2[nH]c1=O)OCCO3,?,0.0,-7,-0.1%,12%[15.4 µM],-9%,2%
CCN(CC(=O)NCc1cccs1)C(=O)/C=C/c1cc(OC)c(OC)c(OC)c1,6,/,-13,16µM*,6%,2%,/
O=C(c1ccc(S(=O)(=O)N2CCOCC2)cc1)N1CCc2ccccc2C1,-11,12,-18,-0.8%,10%,11%,8%
Cc1ccccc1NC(=O)C1Cc2ccccc2CN1C(=O)c1ccco1 (stereo not given),5,7.5,82,/,1%[15.4 µM],-2%,?
CCOC(=O)C1=C(CP(=O)(c2ccccc2)c2ccccc2)NC(=O)NC1c1ccc(OC)cc1 (stereo not given),-8,-0.1,-7,0.9%,5%[15.4 µM],1%,3%
COc1ccc(-c2ccc([C@H]3[C@H]4C=CC[C@@H](C)[C@@H]4C(=O)N3Cc3ccccc3)c(F)c2)cc1,?,2.0,80,20µM*,/,4%,-16%
Cc1ccc(S(=O)(=O)N(C)c2ccc(OCC(=O)Nc3ccc(C(=O)N(C)C)cc3)cc2)cc1C,-3,/,-9,1.2%,-31%[inhibitor],-36%,/
CN1CCc2nc(NC(=O)COc3ccc4ccccc4c3)sc2C1,2,?,-9,/,28%,1%,0%
COc1ccc(S(=O)(=O)N(C)C[C@@H]2OCCCC[C@@H](C)Oc3ccc(NC(=O)NC(C)C)cc3C(=O)N([C@H](C)CO)C[C@@H]2C)cc1,/,/,-6,-5.3%,10%,/,/
O=C(O)CCCC(=O)NCc1ccccn1,-8,6.5,4,0.1%,-1%,-7%,14%
CC(=O)Nc1cccc(Oc2ncccc2[N+](=O)[O-])c1,1,0.1,4,3.2%,17%,1%,-3%
CC(C)(C)OC(=O)NCc1ccc(CNC(=O)c2nc[nH]c2C(=O)N2CCN(C(=O)OC(C)(C)C)CC2)cc1,1,/,-9,0.7%,/,-12%,/

# Exported bar-delimited: entries from further up.
canonical_smiles | TRPV1 PAM | Menin MLL FP FL | TRPML1 blocker | ClpP mod | gsp ag | gsp antag | Sfp inh
COc1ccc(-c2ccc([C@H]3[C@H]4C=CC[C@@H](C)[C@@H]4C(=O)N3Cc3ccccc3)c(F)c2)cc1 | ? | 2.0 | 80 | 20µM* | / | 4% | -16%
Cc1ccc(S(=O)(=O)N(C)c2ccc(OCC(=O)Nc3ccc(C(=O)N(C)C)cc3)cc2)cc1C | -3 | / | -9 | 1.2% | -31%[inhibitor] | -36% | /
CN1CCc2nc(NC(=O)COc3ccc4ccccc4c3)sc2C1 | 2 | ? | -9 | / | 28% | 1% | 0%
COc1ccc(S(=O)(=O)N(C)C[C@@H]2OCCCC[C@@H](C)Oc3ccc(NC(=O)NC(C)C)cc3C(=O)N([C@H](C)CO)C[C@@H]2C)cc1 | / | / | -6 | -5.3% | 10% | / | /
O=C(O)CCCC(=O)NCc1ccccn1 | -8 | 6.5 | 4 | 0.1% | -1% | -7% | 14%
CC(=O)Nc1cccc(Oc2ncccc2[N+](=O)[O-])c1 | 1 | 0.1 | 4 | 3.2% | 17% | 1% | -3%

# Further compounds follow:
SMILES,TRPV1 PAM,Menin MLL FP FL,TRPML1 blocker,ClpP mod,gsp ag,gsp antag,Sfp inh
Cc1ccc(N(CC(=O)N2CCCC2)S(C)(=O)=O)c(C)c1,20,-1.8,1,/,-14%,11%,21%
CCC(C)[C@H]1CN=C(N)N1CCc1cccc2ccccc12 (stereo not given in full),/,/,26,-0.8%,/,3%,/
Fc1ccc(COc2ccc3ccccc3c2CNc2nn[nH]n2)cc1,13,1.1,3,-2.0%,-50%[inhibitor],-7%,4%
COc1ccc(C(=O)N/C(=C\c2cccc([N+](=O)[O-])c2)C(=O)Nc2cccc(C(=O)O)c2)cc1,-8,11,2,/,-2%[15.4 µM],3%,5%
[O-]/C(=C(\C(=S)Nc1cccc2ccccc12)[n+]1ccccc1)c1ccc2c(c1)OCCO2,6,-2.7,-11,?,0%,3%,45µM*
Cc1ccccc1OCC(=O)OC(C)CN1CCN(C)CC1 (stereo not given),-7,1.5,3,-0.8%,14%,-9%,-7%
CCOC(=O)C(C)N1C(=O)S/C(=C/c2cc(C)n(-c3ccncc3)c2C)C1=O (stereo not given),1,8.9,8,0.7%,-60%[inhibitor],-29%,7%
NS(=O)(=O)c1ccc(SCc2ccccc2)nc1,/,/,-18,/,10%[15.4 µM],8%,/
CN(Cc1ccc(F)cc1)Cc1nc(-c2cnccn2)no1,1,-4.2,1,/,-11%[15.4 µM],-8%,15%
C#CCNC(=O)C1=C[C@@H](c2ccc3c(c2)OCO3)C[C@@H](OCCCCO)O1,/,/,9,-6.6%,-24%,-3%,/
CCOC(=O)c1cc(-c2sc(NC(=O)c3ccccc3)nc2C)n(Cc2ccccc2)n1,/,/,84,?,1%,/,/
CSCCC(NC(=O)COc1ccccc1)C(=O)N1CCN(C(C)=O)CC1 (stereo not given),8,/,-13,-0.4%,21%[15.4 µM],5%,14%
c1ccc(Cn2nnnc2C(c2cccs2)N2CCc3ccccc3C2)cc1 (stereo not given),2,7.1,2,-2.6%,?,-18%,-7%
CN(C)CCNC(=O)C(=O)c1c(-c2ccccc2)cc2ccccn12,1,-1.1,12,/,?,12%,6%
